# High-throughput results from PubChem.
# D2 ag: Beta-Arrestin HTS for Positive Allosteric Modulators of the Human D2 Dopamine Receptor: Agonists; D(2) dopamine receptor (Homo sapiens), P14416; DiscoveRx PathHunter D2 beta-arrestin, luminescence, 90 min; 100% = 57 uM dopamine signal; activation, % (test concentration not listed); actives 0.084% (n = 360,000); AID 624465, 2012; in the data active = activation above about 40%; inconclusive = about 15% to 40%; inactive = below about 15%; note: compound concentration not given in the record; the text of the record calls up to 30% inactive
#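 Agonist mode: compounds alone added to overnight-plated D2 PathHunter cells for 90 min at 37 C, with 57 uM final dopamine (EC100) defining full response. Beta-arrestin recruitment detected by chemiluminescent reagent, read after 1 h at ambient temperature.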
# TRPV1 potentiator: HTS Assay for Compounds that Act as Potentiators of the Vanilloid Receptor 1; Transient receptor potential cation channel subfamily V member 1 (Homo sapiens), Q8NER1; TRPV1-expressing cells, Fluo-8 calcium influx, capsaicin EC20 potentiation; host cell line not named in the record; control for the full effect not named in the record; potentiation, % at 8.33 µM; actives 0.02% (n = 320,000); AID 540277, 2011; active means potentiation above 80%; inconclusive means 30% to 80%; inactive means below 30%; note: 0% is about no effect
# Target sequence (Q8NER1 whole entry, looked up): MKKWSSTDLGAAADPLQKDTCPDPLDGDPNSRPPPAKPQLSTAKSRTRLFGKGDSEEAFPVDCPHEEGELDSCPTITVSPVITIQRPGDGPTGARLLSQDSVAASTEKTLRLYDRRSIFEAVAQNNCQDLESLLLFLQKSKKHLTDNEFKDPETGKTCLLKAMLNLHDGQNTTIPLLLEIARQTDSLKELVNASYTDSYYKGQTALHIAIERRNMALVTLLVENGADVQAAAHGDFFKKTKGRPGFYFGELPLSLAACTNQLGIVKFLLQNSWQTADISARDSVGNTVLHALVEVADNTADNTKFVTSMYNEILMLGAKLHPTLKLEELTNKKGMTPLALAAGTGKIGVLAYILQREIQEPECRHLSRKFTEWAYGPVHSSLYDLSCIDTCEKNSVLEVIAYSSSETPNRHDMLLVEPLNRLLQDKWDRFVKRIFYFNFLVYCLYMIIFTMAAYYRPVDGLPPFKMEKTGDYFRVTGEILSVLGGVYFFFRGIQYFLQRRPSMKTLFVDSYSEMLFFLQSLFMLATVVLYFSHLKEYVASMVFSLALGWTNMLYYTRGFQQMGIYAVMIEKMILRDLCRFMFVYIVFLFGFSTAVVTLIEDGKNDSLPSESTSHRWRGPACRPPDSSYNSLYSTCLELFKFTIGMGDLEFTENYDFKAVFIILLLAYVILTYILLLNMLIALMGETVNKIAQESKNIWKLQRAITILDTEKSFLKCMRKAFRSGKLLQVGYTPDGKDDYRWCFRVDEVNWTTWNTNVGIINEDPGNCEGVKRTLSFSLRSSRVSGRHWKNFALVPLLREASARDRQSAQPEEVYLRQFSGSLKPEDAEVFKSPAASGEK
#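 Fluo-8 calcium influx in TRPV1-expressing cells, kinetic read (ex 480/em 520 nm). Compound added and read 3 min for agonist activity, followed by capsaicin at EC20 final and 2 min further read for enhancement.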
# CtBP-E1A inh: qHTS Assay for Inhibitors of the CtBP/E1A Interaction. actives 0.49% (n = 340,000). AlphaScreen GST-E1A/His-CtBP binding, 1536-well; stronger effect = lower value; control for the full effect not named in the record. activity change, % (no concentration beside the values). CtBP / adenovirus E1A interaction (AlphaScreen); in the data active means activity change below about -65%; inconclusive means about -30% to -65%; inactive means above about -30%; note: % is set by controls: 0 for no effect and ±100 for the full control effect; compound concentration not given in the record
#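 Protein mix (5X: 125 nM each GST-E1A, His-CtBP) was incubated with pinned compound 2 h at 37 deg C in dark, in 50 mM Tris pH 8.0 buffer with 300 mM NaCl. Glutathione donor and nickel acceptor beads followed; AlphaScreen signal read after 1 h.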
# PINK1 modulator: A Quantitative High throughput Screen to Identify Chemical Modulators of PINK1 Expression | actives 0.2% (n = 410,000) | AID 624263, 2012 | PINK1 immunofluorescence, high-content cytometry, 24 h | Potency, µM (doses to about 76.6 µM), without a hit: top-dose activation (PINK1 increase), actives largely listed as activators; active = well fitted activation curve with a large enough effect; inconclusive = small, poorly fitted or top-dose-only effect; inactive = flat fitted curve, though single readings scatter; cell line not stated here;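 note: potency is the fitted concentration of half-maximal effect; % of control where 0% means no effect; nearly all actives have a fitted effect of over 65% in size; a mitochondrial uncoupler was the plate control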
#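 Measures PINK1 amount and localization on or inside mitochondria by immunofluorescence. Stable cells get compounds at 5 concentrations for 24 hours before fixation and staining; CCCP controls included.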
# Six1-Eya2 inh: qHTS Assay for Inhibitors of the Six1/Eya2 Interaction. AID 651725, 2012. activity change, % (concentration not given with the values). AlphaScreen GST-Six1/His-Eya2 binding, biochemical; stronger effect = lower value; control for the full effect not named in the record. actives 0.56% (n = 360,000); in the data active = activity change below about -65%; inconclusive = about -30% to -65%; inactive = above about -30%; note: % is set by controls: 0 for no effect and ±100 for the full control effect
#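 GST-Six1 + His-Eya2 (5X stock: 250/500 nM); Tris pH 8.0, 300 mM NaCl, 0.05% BSA, 0.02% Tween 20; GSH donor/Ni acceptor beads; 1 h 37 °C dark; AlphaScreen readout.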
# D2 PAM: Beta-Arrestin HTS for Positive Allosteric Modulators of the Human D2 Dopamine Receptor: Potentiators. AID 624464, 2012. DiscoveRx D2 beta-arrestin cells, luminescence, 90 min; 100% = 57 uM dopamine signal. D(2) dopamine receptor (Homo sapiens), P14416. potentiation, % (no concentration beside the values). actives 0.23% (n = 360,000); active = potentiation of 50% or more; inconclusive = 30% to 50%; inactive = 30% or less;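 note: compound concentration not given in the record; tested on top of an EC20 dose of dopamine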
#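 D2 cells co-treated with compound plus 50 nM dopamine (EC20) for 90 min at 37 deg C to detect potentiation. Beta-arrestin recruitment was read as enzyme-fragment luminescence after 1 h at ambient temperature. Full response was set by 57 uM dopamine.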
# Sfp PPTase inh: qHTS Assay for Inhibitors of Bacillus subtilis Sfp phosphopantetheinyl transferase (PPTase). 4'-phosphopantetheinyl transferase ffp (Bacillus subtilis), Q9F4F7. Biochemical Sfp PPTase activity, qHTS. Potency, µM, inactives show max response, negative = inhibition, usual class: inhibitors. actives 3.5% (n = 310,000); active = well fitted inhibition curve with a large enough effect; inconclusive = small, poorly fitted or top-dose-only effect, or another doubt; inactive = no such curve, though single readings can be large or run the other way;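 note: the enzyme is Sfp with the accession as filed and its product quenches rhodamine fluorescence; potency is the fitted concentration of half-maximal effect; 0% = enzyme reaction without inhibitor and -100% = no enzyme wells; top concentration of the series not given in the record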
#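 Fluorescence-quenching assay with 15 nM Sfp, 5 uM rhodamine-CoA and 12.5 uM BHQ-2-labelled ybbR peptide in pH 7.6 Hepes/MgCl2 buffer. Enzyme was pre-incubated with compound for 15 min at room temperature. Rate was taken from the 30-min fluorescence change (525/598 nm).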
# Starred values were filed as active, the others as inactive; ? = inconclusive; nt = not tested or not shown; [ ] = remark or other dose.
# Start of the data: the first 2 records (preview)
# Under each structure: D2 ag	TRPV1 potentiator	CtBP-E1A inh	PINK1 modulator	Six1-Eya2 inh	D2 PAM	Sfp PPTase inh
> c1ccc(Cn2nnnc2C(c2ccccn2)N2CCN(c3ccccc3)CC2)cc1 (stereo not drawn)
    -0.2	-5	4	0.1%	0	-6	14%
> Cc1cc(N2CCCC2)ccc1NC(=O)COc1cccc(C(F)(F)F)c1
    1.1	-7	-17	5.2%	-8	-5	-13%

# The whole of this part, from the start:
# Under each structure: D2 ag	TRPV1 potentiator	CtBP-E1A inh	PINK1 modulator	Six1-Eya2 inh	D2 PAM	Sfp PPTase inh
> c1ccc(Cn2nnnc2C(c2ccccn2)N2CCN(c3ccccc3)CC2)cc1 (stereo not drawn)
    -0.2	-5	4	0.1%	0	-6	14%
> Cc1cc(N2CCCC2)ccc1NC(=O)COc1cccc(C(F)(F)F)c1
    1.1	-7	-17	5.2%	-8	-5	-13%
> CC(C)(C)OC(=O)N1CCCC(C(=O)Nc2cccc(C(=O)NCc3ccccc3)c2)C1 (stereo not drawn)
    0.1	nt	4	-0.8%	3	nt	nt
> O=C(OC1CC2CC1[C@H]1CCCCN1C2=O)N1CCC(c2ccccc2)CC1 (stereo partly drawn)
    nt	nt	-2	1.3%	2	nt	nt
> CC(=O)Nc1ccc(CN(C)c2c(C)nc3ccc(C(=O)Nc4ccc(Cl)c(Cl)c4)cn23)cc1
    -2.4	nt	-14	1.1%	3	-17	nt
> N#C/C(=C(/O)Cc1cccc2ccccc12)c1nc2ccccc2s1
    -2.5	6	-2	?	-1	-13	18%
> C=CCNCc1cc(=O)n2c(-c3ccccc3)csc2n1
    8.8	8	1	2.0%	3	-2	-25%
> Cc1ccc2c(c1)N(C(=O)CCC(=O)N1CCN(c3ccccn3)CC1)CC(C)O2 (stereo not drawn)
    -4.0	28	-1	2.9%	2	-3	-11%
> CN(CC(=O)Nc1cccc(F)c1)C(=O)c1cc(-c2cccs2)nn1-c1ccccc1
    -2.6	?	0	-1.6%	0	-28	nt
> CCOC(=O)c1sc2nc(CSc3ccccc3)nc(N3CCCN(C)CC3)c2c1C
    -1.5	-11	nt	0.5%	-28	-1	50µM*
> O=C(CNC(=O)c1ccco1)N/N=C/c1ccccc1[N+](=O)[O-]
    0.0	28	5	0.3%	-2	1	4%
> COCCCNC(=S)N/N=C/c1ccc(N(C)C)cc1
    -2.5	7	23	0.2%	-12	-14	-2%
> Cc1cc(NS(C)(=O)=O)c(=O)n(Cc2c(F)cccc2Cl)c1
    -7.5	5	nt	0.4%	0	-9	6%
> Cc1cc(C)c(COCc2cc(/C=N/O)c(C)cc2C)cc1/C=N/O
    0.0	5	10	1.3%[38.3 µM]	-9	2	3%
> CNC(=O)c1cc(S(=O)(=O)N2CC(C)OC(C)C2)ccc1N1CCCCC1 (stereo not drawn)
    -2.7	0	-3	1.9%	4	-3	5%
> O=[N+]([O-])c1ccc(F)c(N=Cc2ccc(Br)s2)c1
    -5.3	4	nt	2.4%	9	-4	-10%
> Cc1cc(CNC(=O)c2cc(COc3ccc(F)c(F)c3)on2)nn1C
    -3.4	-6	12	1.2%	0	8	8%
> Cc1ccc(CNc2nc3ccccc3n2C)cc1
    -2.8	10	-3	-3.4%	8	-11	-1%
> O=C(COC(=O)CCSc1ccccc1)Nc1cc(F)ccc1F
    -6.8	-14	nt	0.1%	12	-19	-1%
> CCN(CC)CC1(O)CCN(C(=O)c2ccc(Cl)c(Cl)c2)CC1
    -1.5	4	6	0.9%	6	-8	9%
> COC(=O)c1ccc(N2C(=O)CC(N3CCC(O)(c4ccc(Br)cc4)CC3)C2=O)cc1 (stereo not drawn)
    0.7	-1	2	-1.0%	-2	18	7%
> ON=C1c2ccccc2-c2cc(Br)ccc21
    4.0	nt	6	-6.3%	-15	-5	nt
> CC1CCN(C(=O)CCc2ccc(S(=O)(=O)NC(C)C)cc2)CC1
    -2.0	3	0	-2.6%[38.3 µM]	3	4	11%
> COCCN=C1NN=C(c2ccc(C)c([N+](=O)[O-])c2)CS1
    -6.4	4	-3	-1.4%	-5	-3	-26%
> CCOC(=O)C1(CC2CCCCO2)CCN(Cc2cc3ccccc3[nH]2)CC1 (stereo not drawn)
    -5.0	-7	19	-0.1%	8	-10	13%
> Cn1ccnc1/C(=N\NC(=O)c1ccccc1)c1cccc([N+](=O)[O-])c1
    -3.2	-11	-1	-0.5%	-4	-8	3%
> COc1ccc(C2(O)CC3CCC(C2)N3c2cc(C)nc(-c3ccccc3)n2)cc1 (stereo not drawn)
    -1.3	-4	20	0.7%[38.3 µM]	-5	-18	-22%
> CC[n+]1c(P(=O)([O-])c2ccccc2)[nH]c2ccccc21
    -2.4	23	5	-2.9%	0	-6	-14%
> COc1ccccc1NC(=O)CSc1nccc(=O)[nH]1
    -1.6	-6	-3	2.3%[38.3 µM]	0	-4	9%
> CCN(c1ccccc1)c1nc(Cl)nc2c1cnn2C
    -1.8	nt	-11	-0.3%	-4	-2	nt
> O=C(NC(=S)Nc1ccc2oc(=O)ccc2c1)c1ccco1
    -2.1	-14	6	-1.3%	3	-2	?
> O=C(CSC(=S)N1CCOCC1)c1ccccc1
    -0.6	-6	-7	0.8%	3	14	2%
> O=C(O)c1cc2cccc(S(=O)(=O)N3CCCCC3)c2cc1O
    -4.8	16	22	1.7%	-2	1	15%
> O=C(NCC1CCCO1)c1ccccc1S(=O)(=O)c1ccc([N+](=O)[O-])cc1 (stereo not drawn)
    3.2	0	7	-1.4%	-1	9	23%
> CC(C)C(OC(=O)c1ccco1)C(=O)NC1CCCCC1 (stereo not drawn)
    5.3	9	-15	-0.1%	24	1	-3%
> O=c1c(-c2cccc([N+](=O)[O-])c2)[n+]([O-])c2ccccc2n1O
    -0.2	-3	2	-0.8%	2	-1	0%
> OC1CCCN(C(=S)NCc2ccccc2)C1 (stereo not drawn)
    -2.6	7	-7	2.3%	14	-32	3%
> COc1ccc(CCC(=O)Nc2cccc(S(=O)(=O)N3CCCCCC3)c2)cc1
    1.0	28	-7	-1.6%	-3	-14	nt
> COC(=O)c1c(NC(=O)c2ccccc2)sc(C(N)=O)c1C
    -1.2	-11	-14	?	-1	-6	11%
> COc1ccc2nc(/N=C(\N)NC(=O)C(C)(C)C)nc(C)c2c1
    -0.7	10	-4	1.8%	-3	-34	10%
> COc1ccc(C)cc1NC(=O)CCNC(=O)c1ccco1
    -5.1	3	-5	-0.9%	2	-3	7%
> CC(=O)NC(CCS(C)(=O)=O)C(=O)Nc1ccccc1 (stereo not drawn)
    -5.8	-25	3	1.8%	-1	-1	16%
> COc1ccccc1N1CCN(C(=O)c2ccc3noc(-c4ccccc4)c3c2)CC1
    11	nt	1	2.3%	1	?	nt
> CC(C)(C)S(=O)(=O)N1C[C@@H]2C(=CC[C@H]3C(=O)N(c4ccccc4)C(=O)[C@@H]23)[C@@H]1CCO
    0.7	nt	27	-0.6%	9	nt	nt
> Cc1nc(SCC(=O)Nc2ccccn2)n[nH]1
    -1.4	4	8	-1.1%	4	0	6%
> COc1ccc(CCCc2nnc(SCC(=O)Nc3ccccc3F)o2)cc1
    -2.7	?	4	-1.5%	9	-5	15%
> Cc1nnc(SCC(=O)Nc2nsc(-c3ccc(C(C)(C)C)cc3)n2)s1
    -4.6	-11	-17	1.7%	-1	-1	-4%
> Cc1c(NC(=O)c2cc(C(C)C)on2)c(=O)n(-c2ccccc2)n1C
    -2.1	?	10	-4.1%[38.3 µM]	2	19	13%
> Cc1ccc(CNc2ccc3nnc(-c4ccccc4)n3n2)cc1
    -2.7	16	-2	2.2%	-3	3	-4%
> CCOC(=O)C1CCCN(C(=O)c2cc3cc4ccc(OC)cc4nc3o2)C1 (stereo not drawn)
    6.9	-8	-11	-0.9%	-5	-1	17%
> Nc1cc(N)nc(SCC(=O)NCC(=O)Nc2ccc(F)c(F)c2F)n1
    0.0	nt	-5	1.1%	3	8	nt
> O=C1NN(c2ccccc2)C(=O)/C1=C/c1ccc(Sc2ccc(Cl)cc2)o1
    -24	-11	nt	-0.4%	-12	-12	-2%
> O=C(O)C1CC=CCC1C(=O)Nc1cccnc1 (stereo not drawn)
    -1.5	0	-11	0.5%	-1	-2	9%
> O=C1CCC(C(=O)N2CCc3ccccc3C2)CN1CCCN1CCOCC1 (stereo not drawn)
    -6.4	7	15	-0.3%	3	-18	20%
> COc1ccc(OC)c(CCNC(=O)CN2C(=O)CCSc3ccccc32)c1
    -2.1	16	4	3.1%	6	0	21%
> O=[N+]([O-])c1cccc(S(=O)(=O)c2ccc(NCCO)c([N+](=O)[O-])c2)c1
    ?	-3	6	-0.3%	-2	?	5%
> Clc1cccc(NCc2ccccc2)n1
    0.0	16	-12	1.2%	14	-10	6%
> COc1ccc(OCc2nnc(SC(C)C(=O)Nc3ccc(N4CCOCC4)cc3)n2C)cc1 (stereo not drawn)
    -1.6	nt	-1	0.0%	7	-18	nt
> O=C(NCc1ccncc1)C1CCN(S(=O)(=O)c2cccc(C(F)(F)F)c2)CC1
    -2.2	-22	0	1.4%	-5	-8	32%[activator]
> O=[N+]([O-])c1cc(-n2cnnn2)ccc1N1CCC(Cc2ccccc2)CC1
    1.9	-20	?	-4.3%[38.3 µM]	?	9	-12%

# Additional compounds:
# Under each structure: D2 ag	TRPV1 potentiator	CtBP-E1A inh	PINK1 modulator	Six1-Eya2 inh	D2 PAM	Sfp PPTase inh
> S=c1[nH]nc(Cn2cnc3ccccc32)n1-c1ccccc1
    -3.2	0	9	3.0%	-2	-6	?
> O=C(CSc1ncn[nH]1)NCCc1ccc(Cl)cc1Cl
    3.6	-8	7	1.8%	-2	1	7%
> O=C(CSc1ncccn1)NCc1ccc2c(c1)OCO2
    -2.7	-3	6	2.1%	-3	1	4%
> O=C(NC1CC1)c1ccc2c(Cl)c3c(nc2c1)CCCC3
    -2.9	-11	nt	-1.3%	-9	-8	8%
> O=C(Nc1sc2c(c1C(=O)O)CCCC2)C(=O)N1CCOCC1
    -1.5	14	1	-0.4%	-1	4	?
